Source: PubChem
Cruzain Triton: blocks cruzain activity in presence of Triton detergent; actives 0.43% (n = 200,000); Potency, µM, for the others: max response, negative = inhibition, actives largely listed as inhibitors; purified cruzain, Z-FR-AMC fluorescence, 0.01% Triton; active = well fitted curve in the direction sought with a large enough effect; inconclusive = small, poorly fitted or top-dose-only effect, or another doubt; inactive = no such curve, though single readings can be large; an effect the other way counts as inactive or inconclusive;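 also: plate controls were neutral wells for no effect and buffer without enzyme for full effect; nearly all actives have a fitted effect of over 40% in size; top concentration of the series not given in the record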
Target sequence (P25779 123-467 limits assumed): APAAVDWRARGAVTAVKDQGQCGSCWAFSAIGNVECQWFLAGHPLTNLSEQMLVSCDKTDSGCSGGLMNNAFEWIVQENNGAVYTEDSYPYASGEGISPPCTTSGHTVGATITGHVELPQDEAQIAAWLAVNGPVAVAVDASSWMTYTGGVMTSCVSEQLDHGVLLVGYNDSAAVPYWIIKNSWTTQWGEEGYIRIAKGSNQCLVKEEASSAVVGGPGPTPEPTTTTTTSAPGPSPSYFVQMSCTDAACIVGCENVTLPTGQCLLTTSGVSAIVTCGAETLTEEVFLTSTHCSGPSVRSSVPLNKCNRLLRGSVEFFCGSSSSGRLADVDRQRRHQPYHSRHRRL
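Read-out: AMC fluorescence (360 nm excitation, 450 nm emission), four reads over 2 min, first-to-third difference used. Conditions: cruzain 1.5 nM, Z-FR-AMC 2 uM, pH 5.5 acetate, 5 mM DTT, 0.01% Triton X-100.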
2A StopGo: FMDV 2A StopGo reporter, luciferase signal; Potency, µM (series often up to 57.9 µM), inactives show at the top dose signal change, negative = less light; actives 1.2% (n = 410,000); human cells with a luciferase reporter of 2A StopGo recoding; control for the full effect not named in the record; AID 1159524; active = well fitted falling curve with a large enough effect; inconclusive = small, poorly fitted or top-dose-only effect; inactive = no such curve, though single readings can be large or run the other way; tested in HEK293T cells; also: % is scaled to controls: 0 for no effect and ±100 for the full control effect; nearly all actives have a fitted effect of over 45% in size; luciferase light after 4 h
LASV entry inh: inhibitors of Lassa virus binding or cell entry. Potency, µM (top dose mostly 37.9 µM), for inactives: at the highest dose activity change, negative = inhibition, hits mostly inhibitors. actives 1.2% (n = 300,000). AID 540256. Lassa virus pseudotype entry inhibition, cell reporter; control for the full effect not named in the record; active means well fitted inhibition curve with a large enough effect; inconclusive means small, poorly fitted or top-dose-only effect, or effect the other way; inactive means flat fitted curve, though single readings scatter; tested in HEK293 cells; also: % is scaled to controls: 0 for no effect and ±100 for the full control effect; nearly all actives have a fitted effect of over 50% in size; luciferase read-out
MARV entry inh: Marburg virus entry inhibition. Marburg virus pseudotyped entry inhibition, cell reporter; control for the full effect not named in the record; about a third of the inactives were read at about 46 µM. Potency, µM (series often up to 37.8 µM), for inactives: at the highest dose activity change, negative = inhibition, most hits filed as inhibitors. actives 1.8% (n = 300,000). AID 540276; active = well fitted inhibition curve with a large enough effect; inconclusive = small, poorly fitted or top-dose-only effect, or effect the other way; inactive = flat fitted curve, though single readings scatter; tested in HEK293 cells; about a fifth of its hits are not listed in these tables; also: % is scaled to controls: 0 for no effect and ±100 for the full control effect; luciferase read-out
RE007 growth inh: less growth of the S. pombe RE007 Vpr strain; S. pombe RE007 Vpr strain, BacTiter-Glo ATP luminescence, 24 h; control for the full effect not named in the record; Potency, µM (top dose mostly 92.2 µM), for the others: at the top dose activity change, negative = less growth; actives 0.21% (n = 360,000); active = well fitted falling curve with a large enough effect; inconclusive = small, poorly fitted or top-dose-only effect; inactive = no such curve, though single readings can be large or run the other way;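 also: % is scaled to controls: 0 for no effect and ±100 for the full control effect; nearly all actives have a fitted effect of over 50% in size; the assay follows cell death caused by Vpr and the record does not say whether a fall means rescue or toxicity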
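Fission yeast strain RE007, carrying one chromosomally integrated HIV-1 vpr copy, was seeded at OD 0.01 in PMG+AL medium with 23 nL pinned compound. After 24 h at 30 °C and 99% humidity, viability was read by BacTiter-Glo luminescence.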
NS1 function inh: blocks influenza NS1 protein function | actives 0.4% (n = 270,000) | Potency, µM (doses to about 46.1 µM), without a hit: at the highest dose activity, positive = more growth | S. cerevisiae slowed by influenza A NS1, growth recovery by OD600; also: actives are rising curves; nearly all actives have a fitted effect of over 50% in size
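In this qHTS, NS1 from influenza A is expressed in budding yeast, where it slows growth. Cells are switched from glucose to 2% galactose medium (pH 6.0, -URA), treated with compound, and growth recovery is read at OD600.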
Cruzain noTriton: cruzain (T. cruzi) inhibition without detergent; P25779; Potency, µM, inactives show max response, negative = inhibition, most hits filed as inhibitors; actives 2.3% (n = 200,000); purified cruzain, Z-FR-AMC fluorescence, no detergent; active = well fitted curve in the direction sought with a large enough effect; inconclusive = small, poorly fitted or top-dose-only effect, or another doubt; inactive = no such curve, though single readings can be large; an effect the other way counts as inactive or inconclusive;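 also: plate controls were enzyme without inhibitor for no effect and buffer without enzyme for full effect; nearly all actives have a fitted effect of over 40% in size; top concentration of the series not given in the record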
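Detergent-free condition (0.00005% Triton X-100) in acetate buffer pH 5.5 with DTT. 1.5 nM enzyme and compound were pre-mixed 15 min, then 2 uM Z-FR-AMC substrate added; reaction progress from fluorescence change between first and third reads (60 s).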
SARS PLP yeast: blocks SARS-CoV papain-like protease in a yeast assay; AID 485353; actives 0.19% (n = 330,000); S. cerevisiae expressing SARS-CoV PLpro, growth rescue; control for the full effect not named in the record; Potency, µM (series often up to 32.9 µM), without a hit: top-dose activity, positive = growth rescue; also: 0% is about no effect; nearly all actives have a fitted effect of over 55% in size; growth read by luminescence after 48 h
The depositor's hits bear a star; ? = inconclusive; . = not tested or not shown; & = joins results of further samples; [ ] = another dose, or the depositor's remark. Unless noted, calls follow the shape of the dose curve; as a rule, active means well fitted rising curve with a large enough effect; inconclusive means small, poorly fitted or top-dose-only effect; inactive means no such curve, though single readings can be large or run the other way. Potency is read from the fitted curve at half-maximal effect.

SMILES | Cruzain Triton | 2A StopGo | LASV entry inh | MARV entry inh | RE007 growth inh | NS1 function inh | Cruzain noTriton | SARS PLP yeast
CCOc1ccc(C(=O)c2cnc3ccccc3c2N2CCN(CC)CC2)cc1 | . | -6.5% | . | . | -3.8% | 14.3% | . | 4.4%
CSc1nc2ccccc2c(=O)n1C1CCCCC1 | . | -23.7% | 0.2%[46.1 µM] | ? | -21.8% | -4.0% | . | -0.9%
COc1ccc(N2CCN(C(c3ccccc3OC)c3nnnn3Cc3ccco3)CC2)cc1 (configuration not stated) | -3.1% | 14.3% | ? | ? | -22.3% | -50.9% | -5.6% | -16.7%
COC(=O)c1cc2c(cn1)[nH]c1ccccc12 | -5.9% | 26.7% | . | ? | . | -43.8% | 12.9% | .
Cc1ccsc1-c1nc(CSCC(=O)NCCN2CCCC2)c(C)o1 | -3.8% | -1.2% | 15.7% | 2.3% | 2.6%[3.69 µM] | -0.7% | -1.5% | 1.9%
O=C(NC1CCCCCC1)C1CCN(C(=O)N2CCOc3ccc(Cl)cc32)CC1 | -8.4% | -5.4% | ? | . | . | . | -16.6% | .
O=C1CC(N2CCN(c3ccc(O)cc3)CC2)C(=O)N1Cc1cccs1 (configuration not stated) | 3.8% | -22.1% | ? | -0.3% | -27.3% | -13.7% | 0.8% | -30.3%
COCCCNC(=O)c1ccc(-c2nc(CS(=O)(=O)c3ccc(C)cc3)c(C)o2)cc1 | 0.3% | -0.1% | -15.9%[46.1 µM] | . | . | . | 5.5% | .
CCOc1ccc(CN2CCN(C(=O)c3cccc4ccccc34)CC2)cc1 | . | ? | . | . | -5.5% | -23.1% | . | -1.1%
NC(=O)c1ccc(NC(=O)CCN2C(=O)c3ccccc3C2=O)cc1 | . | -13.9% | -0.4% | 15.6% | -4.8% | -0.9% | . | 2.6%
COc1cccc(CN2CCN(C(c3ccccc3)c3ccccc3)CC2)c1O | . | -11.2% | ? | ? | -21.9% | 1.7% | . | 5.4%
CSc1nc2sc3c(c2c(=O)n1C)CCC3 | . | 10.1% | . | . | -5.6% | -12.6% | . | -8.8%
CCC(=O)c1cn(CC(=O)Nc2ccc(C)cc2C)c2ccccc12 | . | -7.8% | -6.9% | ? | -5.2% | 6.6% | . | -4.1%
Cc1ccc(Sc2ccc(N3CCCC(C(=O)Nc4ccc(Br)cc4)C3)nn2)cc1 (configuration not stated) | -6.2% | 2.9% | 1.12µM* | -19.6%[46.1 µM] | . | . | ? | .
Cc1ccc2nc(Cl)c3cc(C(=O)NC4CCCCCC4)sc3c2c1 | -0.8% | -1.7% | 18.9%[46.1 µM] | -2.9%[46.1 µM] | . | . | -13.3% | .
Nc1cc(=O)[nH]c(SCC(=O)Nc2cc(Cl)cc(Cl)c2)n1 | -2.2% | -15.4% | ? | ? | 27.2% | 9.7% | -8.3% | 8.6%
O=C(N/N=C1\SCC(=O)N1CCc1ccccc1)c1cccs1 | . | 17.7% | -8.9%[46.1 µM] | 11.9%[46.1 µM] | -6.6% | -2.0% | . | 0.9%
COc1ccc(CNC(=O)Cn2c(-c3ccccc3)cc(C(C)=O)c2C)cc1OC | 0.8% | 5.4% | . | 0.5%[46.1 µM] | . | . | -2.5% | .
O=[N+]([O-])c1ccc(CS(=O)(=O)c2ccc(Cl)cc2)cc1 | . | -12.6% | -22.5%[46.1 µM] | ? | -8.2% | -4.1% | . | -0.3%
Cc1ccc(-n2c(CNc3ccc(F)cc3)nnc2SCC(=O)NCc2ccco2)cc1 | -2.0% | -14.0% | -0.8% | ? | -0.6% | 2.3% | 12.8% | -1.2%
COCCNC(=O)/C(C#N)=C/c1c(N2CC(C)OC(C)C2)nc2ccccn2c1=O (configuration not stated) | -8.7% | -15.2% | 0.0% | 2.7% | -10.2% | -7.2% | 6.0% | 14.2%
CCCCn1c(N)c(N(Cc2ccccc2OC)C(=O)C2=COCCO2)c(=O)[nH]c1=O | . | -13.9% | 5.4% | 0.0%[46.1 µM] | -3.8% | . | . | 5.8%
Cc1nnc(NC(=O)NCN2C(=O)C3C4C=CC(C4)C3C2=O)s1 (configuration not stated) | -1.7% | -18.2% | 3.3% | 3.8% | 3.6% | 1.9% | -8.5% | 4.7%
O=C(COC(=O)c1ccc(Cl)nc1)NC1CCCc2ccccc21 (configuration not stated) | . | 0.6% | 16.3% | -2.1% | -1.4% | . | . | 17.3%
Clc1ccc(-c2nnc3c4ccccc4nc(N4CCOCC4)n23)cc1Cl | -7.5% | -21.4% | -0.1% | ? | 22.1% | 0.6% | 13.7% | -6.5%
CCOC(=O)c1cn2nc(N3CCCCC3)ccc2n1 | . | -57.1% | ? | ? | 5.9% | -1.5% | . | -1.2%
COc1ccc(N(CC(=O)NCc2cccnc2)S(=O)(=O)c2c(C)nn(C)c2C)cc1 | 3.3% | -1.4% | . | 1.0% | -3.5% | -0.1% | 3.4% | -4.5%
Cc1ccc(NC(=O)CN2C(=O)CCSc3ccc(S(=O)(=O)N4CCCC4)cc32)cc1C | -3.8% | -5.3%&-7.6% | -27.3%&-1.2%[46.1 µM] | ? | 2.3% | -0.4% | 18.4% | 1.5%
CN(C(=O)CSc1nc2ccccc2n1CCc1ccccc1)C1CCS(=O)(=O)C1 (configuration not stated) | -0.6% | -6.5% | -8.7% | 0.6% | -19.2% | -11.7% | 15.4% | -3.8%
CCOC(=O)N1CCC(N2C(=O)c3ccccc3C2Nc2ccccc2C)CC1 (configuration not stated) | -0.7% | -26.9% | . | . | 2.3% | -39.1% | ? | 5.3%
Cc1ccccc1N(CC(=O)NCc1ccc2c(c1)OCO2)C(=O)CCC(=O)Nc1ccccn1 | 1.5% | -2.5% | -18.2% | -6.8%&-21.1% | 16.2% | -8.0% | -2.8% | ?
COc1ccc(NC(=O)c2cc(CC(C)C)nc3ccccc23)cc1 | . | 15.4% | . | . | -15.9% | -72.4% | . | 1.9%
Cc1ccccc1OCCCCn1c(CO)nc2ccccc21 | . | ? | ? | ? | -5.6% | . | . | -2.6%
COc1ccccc1NC(=O)c1cc(C(=O)Nc2ccccc2OC)cc(N2C(=O)CCC2=O)c1 | -0.7% | -2.3% | 5.4% | -2.8% | -13.4% | 12.1% | 0.9% | 1.7%
O=C1NC(=O)c2cc(NC(=O)C3CCCCC3)ccc21 | 1.8% | . | 5.2% | 12.7% | -14.2% | -0.5% | 1.4% | 2.4%
Cn1c(=O)n(Cc2ccccc2F)c(=O)c2c1nc1n2CCCN1CCc1ccccc1 | 10.6% | -5.2% | 7.9% | 17.6% | 27.4% | -1.3% | -2.2% | -2.5%
Cc1cc(C)c(NC(=O)COC(=O)c2ccncc2)c(C)c1 | . | -8.1% | -17.8%[46.1 µM] | 2.3%[46.1 µM] | 9.3% | . | . | 0.9%
COc1ccccc1-c1nnc(SCC(=O)Nc2cc(C)on2)o1 | 0.8% | -5.8% | 7.7% | -6.5% | 10.3% | -6.7% | ? | .
CN1CCN(C(=O)CCN2C(=O)S/C(=C/c3ccc(Cl)cc3)C2=O)CC1 | . | -7.5% | 2.1% | -3.0%[46.1 µM] | 79.2% | 4.9% | . | -0.4%
Cc1nn(C)cc1/C=N/NC(=O)Cn1nnc(N)n1 | . | -1.4% | ? | -13.0% | -2.4% | 6.6% | . | -1.1%
COC(=O)c1sccc1NC(=O)Nc1cccc(C(C)=O)c1 | . | 66.5%[activator] | . | . | -4.1% | 5.4% | . | -0.5%
COc1cc(CN2CCNC(=O)C2CC(=O)N(C)CCCN2CCOCC2)cc(OC)c1 (configuration not stated) | . | -18.2% | . | . | -13.4% | 0.2% | . | 2.4%
CCOC(=O)c1c(C)[nH]c(C(=O)CN2C(=O)NC(C)(C)C2=O)c1C | . | -2.6% | 15.1%[46.1 µM] | 19.2% | 0.8% | . | . | 1.4%
Brc1ccccc1OCCN1CCCC1 | . | -1.3% | 6.8%[46.1 µM] | 19.1%[46.1 µM] | -0.8% | . | . | .
COc1ccc(C(=O)NCCn2ccc3ccccc32)cc1OC | -0.4% | 9.5% | . | . | 1.8% | -35.4% | 5.3% | -6.8%
O=C(O)c1ccccc1NC(=O)N1C[C@H]2C[C@@H](C1)c1cccc(=O)n1C2 | . | -18.0% | . | . | 8.4% | 9.0% | . | -1.9%
Cc1cc(=O)nc2c3ccccc3n(C(C)C(=O)NCCC(C)C)n12 (configuration not stated) | . | 1.5% | . | . | 6.3% | 5.1% | . | -0.2%
O=C1C(c2ccc(F)cc2)N(CC2COc3ccccc3O2)C(=O)CN1C1CCCCC1 (configuration not stated) | -3.2% | 45.2%[activator] | 1.7% | 4.7% | -11.2% | 4.9% | -4.6% | 4.7%
CC(=O)Nc1cccc(OCC(=O)/C=C2\N(C)c3ccccc3C2(C)C)c1 | . | 25.1µM* | -12.5% | ? | 8.6% | . | . | -3.4%
COc1ccc2c(c1)sc(=N)n2CC(=O)Nc1cc(C)cc(C)c1 | . | -14.6% | 13.5% | -1.8%[46.1 µM] | -2.9% | 16.7% | . | 0.9%
Fc1ccc(NC(=S)N2CCCc3ccccc32)cc1 | 8.2% | 0.6% | -13.8% | 11.1% | -1.7% | -17.1% | -8.3% | -1.6%
Cc1ccc2c(c1)N(Cc1ccncc1)C(=O)C(C)O2 (configuration not stated) | 6.3% | -21.2% | 7.8% | 0.7% | 3.7% | -10.9% | -7.9% | 0.3%
CCn1c2ccccc2c2cc(NC(=O)N3CCOCC3)ccc21 | -2.5% | 27.4% | 4.4% | 4.5% | -3.8% | -14.4% | -17.5% | -2.7%
COCCn1c(SC(C)C(=O)Nc2ccc3c(c2)OCCO3)nc2ccccc2c1=O (configuration not stated) | 0.6% | -10.0% | -11.2% | -9.3% | 10.5% | -4.1% | 2.7% | 6.0%
CCOC(=O)c1c(C)oc2ncnc(N3CCN(c4ccccc4)CC3)c12 | -5.5% | 28.2µM* | -25.3%[46.1 µM] | . | . | . | -6.3% | .
CCCOc1ccc(C(=O)Nc2ccc3oc(-c4ccncc4)nc3c2)cc1 | -0.1% | ? | 11.2%[46.1 µM] | . | . | . | -3.9% | .
CCCn1nnc(NC(=O)COc2ccc(Cl)cc2)n1 | 4.8% | 7.8% | -1.3% | -6.5%[46.1 µM] | 0.0% | -14.6% | -1.8% | .
CC(=O)Nc1ccc(NC(=O)C(C)OC(=O)CNS(=O)(=O)/C=C/c2ccc(C)cc2)cc1 (configuration not stated) | . | -14.9% | -1.1% | -1.5% | 12.1% | . | . | .
